Sa RN4220 lethal = growth inhibition of S. aureus RN4220, primary screen, OD600. 16 h. inhibition, % (no concentration beside the values). 0.33% of 330,000 active. AID 1259311, 2017;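 active means z-score of -3 or lower and OD600 up to 0.18 on both plates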;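 further: plate controls were untreated cells for no effect and reference antibiotic for full effect; stock transfer was 100 nL into about 80 µL; one replicate is shown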
BJeLR viability = MLPCN primary cell-based screen for lethality selective to Ras in HRASV12 cells; 0.17% of 300,000 active; AID 1554, 2009; BJeLR (HRASV12) viability, CellTiter-Glo ATP luminescence, 48 h; reference of the scale not given here; inhibition, % (concentration not given with the values);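 active means replicate mean above 50%; inconclusive means above 50% but judged a plate artefact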;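 further: 50 nL library stock added to about 25 µL; numbers are from one replicate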
Mtb hypoxia rep = PubChem AID 1159583. M. tuberculosis hypoxia-regulated fluorescent reporter, fluorescence. fluorescence inhibition, % (no concentration beside the values). 0.1% of 300,000 active;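 active means 35 to 45% if threefold the growth effect, above 45% if 1.5-fold the growth effect; inactive means the rest, general growth blockers included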;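 further: wells of about 50 µL received 100 nL stock; 0% = vehicle wells and 100% = reference inhibitor wells; whole bacteria with a GFP reporter of the hypoxia response; strong numbers were not always called active; many hits fall short of the cut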
Bead autofluor = flagged as autofluorescent in microsphere protease counterscreen | compound autofluorescence counterscreen, microsphere flow cytometry; hits give high values | fluorescence intensity (test concentration not listed) | 3.1% of 360,000 active;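 active means at least 3 SD above the mean of all compounds, about 16000 in these data; inconclusive means too few beads counted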;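 further: 100 nL of 1 mM stock went into each well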
PrP UTR inh = inhibition of PrP 5' UTR reporter expression | 0.35% of 340,000 active | cell-based PrP 5' UTR mRNA reporter, plate reader | inhibition, % (concentration not given with the values);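 active means every replicate at 50% or more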;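 further: 0 = median of the neutral control wells; tested in H4 reporter cells; numbers are from one replicate; inactives centre near -14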
ugtP null kill = growth inhibition of ugtP-null S. aureus, primary screen, RN4220 ugtP deletion, OD600; AID 1259309, 2017; growth inhibition, % (no concentration beside the values); 16 h; some inactives read as strong as hits; 0.54% of 330,000 active;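 active means z-score under -3 and OD600 up to 0.15 on both plates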;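 further: plate controls were untreated wells for no effect and antibiotic for full effect; wells of about 80 µL received 100 nL stock; the first replicate is given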
Mtb hypoxia rep growth = second read-out of Mtb hypoxia rep, no call of its own (marks repeat the call); growth inhibition, %; measured here: M. tuberculosis growth (absorbance);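 0% = vehicle and 100% = reference antibiotic; read after six days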
The depositor's hits bear a star; ? = inconclusive; . = no result given; & = joins results of further samples. Rows are unselected. About 4% of those tested had a hit in this group.

SMILES	Sa RN4220 lethal	BJeLR viability	Mtb hypoxia rep	Mtb hypoxia rep growth	Bead autofluor	PrP UTR inh	ugtP null kill
c1ccc(CN2CCN(c3nc(NCc4ccco4)c4ccccc4n3)CC2)cc1	-6.2	7	-17	3	11804	-47	-44
O=C(NN=Cc1ccco1)c1ccccc1OCc1ccccc1Cl	7.3	.	18	9	.	.	-6
CCN(CCO)Cc1csc2ccccc12	5.6	2	3	5	9804	-20	4
CCOc1cc(N2CCOCC2)c(OCC)cc1NC(=O)c1nn(CC)c(=O)c2ccccc12	4.7	.	-4	-3	3168	-17	0
O=C(O)Cc1csc(-c2cccc(Oc3ccccc3)c2)n1	2.7&5.6	1&7	0&15	8&0	5924&5047	-20&-14	12&6
COc1ccc(CN=Nc2cc(C)nc(NS(=O)(=O)c3ccccc3Cl)n2)cc1	3.4	3	-3	-9	.	.	7
CC1(C)CC(=O)C2=C(C1)OC(c1cccs1)C(C#N)=C2N (stereo not given)	4.7	-6	6	6	11599	2	0
CN1C(=O)/C(=C/c2ccc(OCc3ccccc3F)cc2)N(C)C1=S	11	-15	6	-5	4172	-23	-11
O=C(O)C1CC(O)CN1C(=S)Nc1ccccc1 (stereo not given)	1.9	3	8	2	3640	-34	11
O=C(CSc1nc2ccc(NC(=O)c3ccccc3C(=O)O)cc2s1)Nc1c(Cl)cccc1Cl	8.7	-1	5	1	5912	-12	0
CC(=NOCC(=O)NCC(F)(F)F)c1cc2ccccc2o1	-4.4	.	3	-2	.	.	5
COc1ccc(NC(=O)NCCCCc2ccccc2)cc1	0.5	.	5	13	5819	-16	7
N#CCSc1nnc(-c2ccccc2O)n1CCc1ccccc1	0.1	-8	2	5	10591	-26	-10
N#CCOc1ccccc1C=Nn1nnnc1N	1.9	.	-6	-1	.	.	10
COc1ccccc1C(=O)NC(CCSC)C(=O)NNC(=O)c1ccccc1O (stereo not given)	13	.	10	2	?	14	9
Cc1cc(C)c(C#N)c(SCC(=O)c2ccccc2)n1	4.1	3	11	-2	2212	-29	6
CCOC(=O)C1CCN(S(=O)(=O)c2ccc3c(c2)NC(=O)CS3)CC1	-4.1	6	0	6	4491	-4	-5
Cn1nc(C(=O)Nc2ccc(S(=O)(=O)NCc3ccco3)cc2)c2ccccc2c1=O	3.6	-3	3	10	.	.	-3
O=C(CSC(=S)N1CCCC1)NCC(=O)Nc1ccccc1Br	.	-5	.	.	?	9	.
O=C(CSc1ccc(Cl)cc1)NC1CCCC1	-0.7	-6	5	4	5485	-34	0
O=C(Nc1cc(C(F)(F)F)ccc1N1CCOCC1)c1cccs1	-1.4	-2	.	.	5085	5	-2
Oc1ccc(N2CCN(CC(O)c3ccccc3)CC2)cc1 (stereo not given)	4.1	6	5	2	3840	-10	5
Cc1ccc(C23CC4CC(CC(NC(=O)NC(C)(C)CO)(C4)C2)C3)cc1	-1.9	7	5	15	22797*	10	-6
CCOC(=O)c1cc2ccc(OC)cc2oc1=O	1.6	-9	.	.	4676	-19	3
COC(=O)C1(C)NC(c2ccccc2C)C2C(=O)N(c3ccccc3)C(=O)C21 (stereo not given)	1.6	-4	-13	-1	3928	-9	1
Later entries
SMILES	Sa RN4220 lethal	BJeLR viability	Mtb hypoxia rep	Mtb hypoxia rep growth	Bead autofluor	PrP UTR inh	ugtP null kill
COc1cc(/C=C2\SC(=S)N(CCC(=O)NC3CCCC3)C2=O)cc(OC)c1OC	2.9	-3	-3	11	5251	-14	5
CCCC(c1nnnn1C1CCCCC1)N1CCN(c2ncccn2)CC1 (stereo not given)	-2.4	1	5	-1	9538	-11	0
COC(=O)/C(=C\Nc1ccc(Cl)cc1Cl)NC(=O)c1ccccc1	-9.0	-7	4	4	2780	-15	-8
Cc1ccc(OCC(=O)N/N=C\c2c(C)n(C)c3ccccc23)c([N+](=O)[O-])c1	.	0	.	.	3238	-22	.
CCOc1ccc(CN(C)CC(=O)Nc2cccc(S(=O)(=O)N(C)c3ccccc3)c2)cc1	9.1	3	6	2	4334	-15	0
CC(C)(C)c1cc(CNC2CS(=O)(=O)C[C@@H]2O)cc(C(C)(C)C)c1O (stereo not given in full)	1.0	-5	.	.	3587	2	9
O=C(c1ccccc1)c1ccc2c(c1)OCCOCCOCCO2	5.7	7	6	0	.	6	16
CCOc1ccccc1/C=N/NC(=O)c1cccc(S(=O)(=O)N2CCOCC2)c1	.	-16	.	.	4565	-12	.
COC(=O)c1c(C(=O)OC)c(-c2ccc(F)cc2)n2c1CS(=O)C2 (stereo not given)	3.7	6	1	-7	2788	-17	12
COC(=O)c1ccc2c(c1)NC(=O)C(N1CCCCC1)S2 (stereo not given)	1.2	-2	-1	-2	22781*	-29	7
CCOC(=O)c1cc(-c2csc(Nc3ccccc3Cl)n2)on1	-0.6	-2	15	20	4081	-17	-6
NC(=O)NS(=O)(=O)Oc1ccccc1	6.5	6	0	1	4245	-21	-6
O=C(O)c1ccccc1C(=O)O	3.7	.	10	2	5743	-15	13
Cc1cc(C)c2c(=O)n(-c3ccccc3)[nH]c2n1	-1.7	2	-1	0	8630	-23	-4
CC1CCc2cc(F)ccc2N1C(=O)CN1C(=O)c2ccccc2C1=O (stereo not given)	7.2	-5	5	5	9613	-28	4
O=C(CN1c2cccc3cccc(c23)S1(=O)=O)NCc1ccc(F)cc1	1.8	.	8	6	2855	-12	5
Cc1ccc(SCCNC(=S)Nc2ccc(C)c(C)c2)cc1	-1.0	0	7	16	9478	0	-6
CCCCN1C(=O)C2NN=C(C(=O)OC)C2C1=O (stereo not given)	3.1	0	13	8	?	-7	2
O=C(OCCOc1ccccc1)c1n[nH]c2ccccc12	3.0	6	-7	3	4532	-70	5
CC=C(C)C(=O)Nc1cccc(C2=NOC3(C2)CC(C(N)=O)N(C(=O)c2ccc(Cl)cc2)C3)c1 (stereo not given)	5.8	.	6	7	.	.	-6
O=C(Nc1nc2ccccc2n1CCN1CCCCC1)C1CCCCC1	2.2	-2	.	.	2139	-16	1
O=C(NN=C1CCS(=O)(=O)c2ccc(F)cc21)c1ccccn1	5.5	.	13	8	.	.	5
O=C(Cn1ncc2c(=O)oc3ccccc3c21)N1CCC(N2CCCCC2)CC1	3.0	-9	3	3	7195	-19	-4
COc1ccc(N2CC(C(=O)Nc3nccs3)CC2=O)cc1 (stereo not given)	2.1	-4	5	5	4528	-10	2
CCCCCCn1c(N2CCN(c3ccccc3)CC2)nc2c1c(=O)n(C)c(=O)n2C	3.1	8	5	8	9001	-11	0
(further entries)
SMILES	Sa RN4220 lethal	BJeLR viability	Mtb hypoxia rep	Mtb hypoxia rep growth	Bead autofluor	PrP UTR inh	ugtP null kill
Cc1cccc(NC(=O)N2C3CCCC2CC(NC(=O)C2CC2)C3)c1 (stereo not given)	-1.7	-1	1	-5	6333	-7	-4
CCn1nc(C)c(NC(=O)c2cnn3c(C(F)F)cc(-c4ccccc4)nc23)c1C	4.2	-4	7	8	2110	-8	0
O=C(NCCOc1ccccc1F)c1ccc2c(=O)n3c(nc2c1)CCC3	-4.3	.	10	10	3969	-69	15
Cc1cccc(C)c1OCc1cc(C(=O)NCC2CC2)no1	5.7	2	4	-1	5651	6	0
CCOc1ccccc1NC(=O)CN1CCC(C(=O)c2ccc(F)cc2)CC1	5.4	-2	1	6	5551	-20	8
Cn1nnnc1SCC(=O)Nc1ccc(N2CCOCC2)cc1	3.1	3	3	1	9895	-10	1
Cc1ccc(S(=O)(=O)N2CCCC2CO)cc1 (stereo not given)	2.7	-5	13	7	8031	-15	3
O=C(NN1C(=O)C2C3C=CC(O3)C2C1=O)c1cccc(Br)c1 (stereo not given)	2.3	-3	5	-1	4097	-19	2
CC(=O)N1CCc2cc(S(=O)(=O)Nc3cccc(C(F)(F)F)c3)ccc21	7.8	2	.	.	4790	15	9
CN(C(=O)COC(=O)CCC(=O)c1ccccc1)c1c(N)n(Cc2ccccc2)c(=O)[nH]c1=O	-0.5	16	-5	6	.	-5	3
Cc1ccc(C(=O)COC(=O)c2cccc([N+](=O)[O-])c2)s1	8.6	.	4	-1	4806	-36	4
O=c1nc(NN=C/C=C/c2ccccc2)cn[nH]1	2.0	.	11	11	.	.	6
O=C(NN=Cc1ccc(OC2CSC2)cc1)c1ccc(CN2CCOCC2)cc1	7.5	.	10	7	.	.	5
CCCCCOc1ccc(C(=O)NC(C(=O)O)C(C)C)cc1 (stereo not given)	4.7	-2	-1	5	6207	-4	-5
O=C(Cc1ccc(Br)cc1)Nc1ccc(S(=O)(=O)N2CCCC2)cc1	.	3	.	.	?	0	.
COc1ccc(C2=NN(C(=O)CSc3nnc(C)n3C)C(c3ccco3)C2)cc1 (stereo not given)	5.6	11	4	2	5298	-20	13
CC(C)Cc1c(O)nc(SCC(=O)N2CCCCCC2)[nH]c1=O	1.0	3	5	-2	4044	-16	1
CC1CC(CC(=O)Nc2nc(-c3ccccc3)cs2)C(=O)O1 (stereo not given)	3.8	1	2	11	2033	-22	-6
COc1ccc(-c2[nH]ncc2Oc2ccccc2OC)c(O)c1	0.3	-3	1	5	24038*	1	-8
COc1ccc(-n2cnc3cc(NCc4ccco4)ccc32)cc1	10	-1	5	10	10129	-37	-3
COc1ccc(/C(C)=N/NC(=O)c2ccccc2OCc2ccccc2)c(OC)c1	.	15	.	.	4721	-106	.
CCOC(=O)c1ccc(NC(=O)Cn2nnc3ccccc32)cc1	-0.1	.	.	.	4036	-62	8
C[C@]12CCC(O)CC1CCC1C2CC[C@]2(C)C(C3=CC(=O)OC3)C(O)C[C@]12O (stereo not given in full)	2.7	.	16	4	.	.	-2
COc1ccc(-c2cc(C)no2)cc1S(=O)(=O)N1CC(=O)Nc2ccccc21	1.2	1	-3	-8	4677	-8	3
CC(=O)CC(O)CC(=O)C1OC(=O)CCCCCCCc2ccccc21 (stereo not given)	16&7.3	.	18&10	8&8	.	.	7&-11
O=S(=O)(Nc1ccccc1)c1cccc2nonc12	3.1	2	8	5	6558	-15	-5
Cc1ccccc1NC(=O)CN1CCOCC1	5.1	-5	10	-1	3181	-17	7
COc1ccc(C(NC(C)=O)c2c(O)ccc3ccccc23)cc1OC (stereo not given)	6.2	4	2	6	2893	-14	7

Taken from the entries so far for reference:
SMILES	Sa RN4220 lethal	BJeLR viability	Mtb hypoxia rep	Mtb hypoxia rep growth	Bead autofluor	PrP UTR inh	ugtP null kill
Cc1cccc(NC(=O)N2C3CCCC2CC(NC(=O)C2CC2)C3)c1 (stereo not given)	-1.7	-1	1	-5	6333	-7	-4
CCn1nc(C)c(NC(=O)c2cnn3c(C(F)F)cc(-c4ccccc4)nc23)c1C	4.2	-4	7	8	2110	-8	0
O=C(NCCOc1ccccc1F)c1ccc2c(=O)n3c(nc2c1)CCC3	-4.3	.	10	10	3969	-69	15

In the list so far, these have fluorine:
SMILES	Sa RN4220 lethal	BJeLR viability	Mtb hypoxia rep	Mtb hypoxia rep growth	Bead autofluor	PrP UTR inh	ugtP null kill
CN1C(=O)/C(=C/c2ccc(OCc3ccccc3F)cc2)N(C)C1=S	11	-15	6	-5	4172	-23	-11
CC(=NOCC(=O)NCC(F)(F)F)c1cc2ccccc2o1	-4.4	.	3	-2	.	.	5
O=C(Nc1cc(C(F)(F)F)ccc1N1CCOCC1)c1cccs1	-1.4	-2	.	.	5085	5	-2
COC(=O)c1c(C(=O)OC)c(-c2ccc(F)cc2)n2c1CS(=O)C2 (stereo not given)	3.7	6	1	-7	2788	-17	12
CC1CCc2cc(F)ccc2N1C(=O)CN1C(=O)c2ccccc2C1=O (stereo not given)	7.2	-5	5	5	9613	-28	4
O=C(CN1c2cccc3cccc(c23)S1(=O)=O)NCc1ccc(F)cc1	1.8	.	8	6	2855	-12	5
O=C(NN=C1CCS(=O)(=O)c2ccc(F)cc21)c1ccccn1	5.5	.	13	8	.	.	5
CCn1nc(C)c(NC(=O)c2cnn3c(C(F)F)cc(-c4ccccc4)nc23)c1C	4.2	-4	7	8	2110	-8	0
O=C(NCCOc1ccccc1F)c1ccc2c(=O)n3c(nc2c1)CCC3	-4.3	.	10	10	3969	-69	15
CCOc1ccccc1NC(=O)CN1CCC(C(=O)c2ccc(F)cc2)CC1	5.4	-2	1	6	5551	-20	8
CC(=O)N1CCc2cc(S(=O)(=O)Nc3cccc(C(F)(F)F)c3)ccc21	7.8	2	.	.	4790	15	9

Screens: PubChem, several laboratories
